HTT promoter inh: Primary qHTS for Identification of Small Molecule Inhibitors of Huntingtin Promoter Activity; AID 1508623, 2021; Potency, µM (highest dose often 57.5 µM), for the others: at the top dose activity change, negative = inhibition, most hits filed as inhibitors; HEK293 HTT promoter firefly luciferase reporter (activity 0% = vehicle and -100% = no light), 24 h; 0.93% of 48,000 active; active = well fitted inhibition curve with a large enough effect; inconclusive = small, poorly fitted or top-dose-only effect; inactive = no such curve, though single readings can be large or run the other way; note: nearly all actives have a fitted effect of over 50% in size
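Firefly luciferase signal from promoter-reporter HEK293 cells was scaled between vehicle (0%) and zero RLU (-100%). Compounds were tested at final concentrations of up to 57.5 uM over 24 h at 37 degrees C. PTC124 at 50 uM final served as control inhibitor.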
PMP22 txn: Cell-based coincidence reporter assay to measure PMP22 gene transcription in S16 Pmp22-F2sN cells - Primary screen | 2% of 43,000 active | S16 Pmp22-F2sN Schwann cells (luciferase reporters placed in the Pmp22 gene), FLuc/NLuc coincidence luminescence, 24 h | AID 1508649, 2021 | Potency, µM (titrated, usually from 57.5 µM), inactives show at the top dose activity change, negative = inhibition, most hits filed as inhibitors; active = clear falling dose curves in both reporters; inconclusive = both reporters move, but less clearly or upward; inactive = either reporter flat; the % is the NLuc reporter signal; note: % is set by controls: 0 for no effect and ±100 for the full control effect; some results filed as inactive show a strong effect at the top dose
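qHTS, 1536-well. Cells seeded, compounds added by pin tool, 24 h 37C. Nano-Glo reagent 1 (lysis/FLuc), 10 min RT, read; Stop&Glo, 10 min RT, read NLuc.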
* = called active by the depositor; ? = inconclusive; . = not tested or not shown; [ ] = dose if it differs, or a comment. Potency is the fitted concentration of half-maximal effect. Not all compounds are listed. The share of hits here may be higher or lower than overall.

SMILES,HTT promoter inh,PMP22 txn
CCc1ccccc1NS(=O)(=O)c1ccc2c(c1)CCN2C(=O)C1CC1,-11%,?
COc1cccc(Cn2c(C)c(CNCc3cccc(C)c3)c(C(=O)O)c2C)c1,4%,-1%
COc1ccccc1NS(=O)(=O)c1cc2c(cc1Cl)NC(=O)CO2,?,?
Cc1ccc(NC(=O)CCc2c(C)nn(-c3ccc(N4CCOCC4)nn3)c2C)cc1F,10%,8%
Cc1ccc(NC(=O)N2CCC(N3CCN(Cc4ccccc4)C(=O)C3=O)CC2)cc1Cl,0%,2%
CCCCNc1nc(Oc2ccc(OCCC)nn2)nc(N(C)C)n1,-28%,?
Cc1cccc(N(C)S(=O)(=O)c2nnc(NC(=O)C(C)Oc3ccccc3)s2)c1 (configuration not stated),?,?
CCOC(=O)c1c(NC(=O)c2cc(=O)c3c(C)cc(C)cc3o2)sc(C(C)=O)c1C,5%,-19%
COc1ccccc1N1CCN(C(=O)c2cnn(-c3ccc(F)cc3F)c2C2CCNCC2)CC1,-16%,-14%
Cc1ccc(C(C)OC(=O)C2(C)CCC(C(=O)O)C2(C)C)cc1 (configuration not stated),1%,.
Fc1cccc(NCc2cccn2-c2nnc(N3CCOCC3)s2)c1,-1%,-44%
COc1ccc(C(=O)c2cn(CC(=O)Nc3ccc4c(c3)OCCO4)c3ccc(OC)cc3c2=O)cc1,-20%,?
COc1ccc(CNc2nc(-c3ccc(OC)cc3)cc(C(F)(F)F)n2)cc1,?,?
Cn1nc(C(=O)N2CCN(c3ccc(Cl)cc3)CC2)c2c1-c1ccccc1SC2,-15%,5%
CCOc1ccc(-c2nnc(SCC(=O)NCCc3ccccc3)nc2-c2ccc(OCC)c(OC)c2)cc1OC,5%,-20%
Cc1ccc(NC(=O)N2CCN3CCCCC3C2)cc1F (configuration not stated),29%,-10%
CCN1C(=O)c2ccccc2Sc2ccc(NC(C)=O)cc21,-8%,58%
CC(NCc1ccc2c(c1)nc(NC(=O)c1ccc(-c3cn[nH]c3)s1)n2CC(C)(C)O)C(C)(C)C (configuration not stated),?,.
CCc1ccc(-n2c(=O)c3c4c(sc3n(CC(=O)N3CCCCC3CC)c2=O)CCC4)cc1 (configuration not stated),-16%,-19%
CC(C)c1ccc(C2Sc3ccccc3NC3=C2C(=O)c2ccccc23)cc1 (configuration not stated),13µM*,?
CCc1ccc(NC(=O)CSC2=Nc3ccccc3C3=NC(CCC(=O)NCc4ccccc4OC)C(=O)N23)cc1 (configuration not stated),-12%,-20%
C[C@]12CC[C@@H]3c4ccc(O)cc4CC[C@H]3[C@H]1CC[C@H]2O,-5%,.
COc1ccc(CNc2nc(-c3ccco3)nn2C(=O)CC(C)C)cc1,48%[activator],9%
O=C(CCC1N=C2c3ccccc3N=C(SCC(=O)Nc3ccccc3F)N2C1=O)NCc1cccs1 (configuration not stated),-2%,7%
CCOC(=O)N1CCc2c(sc3c2c(=O)n(Cc2ccccc2)c(=O)n3Cc2cccc(Cl)c2)C1,-2%,?

Structures shown so far that contain fluorine (6):
SMILES,HTT promoter inh,PMP22 txn
Cc1ccc(NC(=O)CCc2c(C)nn(-c3ccc(N4CCOCC4)nn3)c2C)cc1F,10%,8%
COc1ccccc1N1CCN(C(=O)c2cnn(-c3ccc(F)cc3F)c2C2CCNCC2)CC1,-16%,-14%
Fc1cccc(NCc2cccn2-c2nnc(N3CCOCC3)s2)c1,-1%,-44%
COc1ccc(CNc2nc(-c3ccc(OC)cc3)cc(C(F)(F)F)n2)cc1,?,?
Cc1ccc(NC(=O)N2CCN3CCCCC3C2)cc1F (configuration not stated),29%,-10%
O=C(CCC1N=C2c3ccccc3N=C(SCC(=O)Nc3ccccc3F)N2C1=O)NCc1cccs1 (configuration not stated),-2%,7%

Remaining list, next part:
SMILES,HTT promoter inh,PMP22 txn
Cc1c[nH]c(C=C2C(=O)Nc3ccccc32)c1CCC(=O)O,4%,.
COc1cc2ncnc(Nc3ccc(F)c(Cl)c3)c2cc1OCCCN1CCOCC1,?,.
CCOC(=O)C1CCCN(S(=O)(=O)c2cc(Br)cc3c2N(C(C)=O)CC3)C1 (configuration not stated),-12%,2%
COc1cccc(Nc2nc(-c3ccccc3)c3cc(C)ccc3n2)c1,-22%,?
Cc1cc(C)cc(NC(=O)Cn2cc(C(=O)c3ccncc3)c(=O)c3cc(C)c(C)cc32)c1,-11%,-9%
O=C(O)c1ccc(NC(=O)c2cc(S(=O)(=O)N3CCCCC3)c(Cl)cc2Cl)cc1,-14%,20%
CCCOc1ccccc1-c1nc(SCC(=O)c2ccccc2)n[nH]1,-34%,-23%
COc1ccccc1NC(=O)c1c(NC(=O)c2ccccc2F)sc2c1CCC2,-15%[11.5 µM],-6%
CCOC(=O)c1cccc(NC(=O)CCc2nc3cccnc3n2-c2ccccc2)c1,-31%,-30%
CSc1ncc(C(=O)N2CCN(c3cccc(Cl)c3)CC2)c(C)n1,-13%,-7%
CCOc1ccc(S(=O)(=O)N(CC(=O)Nc2cccnc2)c2ccccc2)cc1,?,-19%
Cc1ccc(CN2C(=O)c3ccccc3Sc3ccc(C(=O)NC4CCCC4)cc32)cc1,?,-3%
O=C(Nc1cccc(C(F)(F)F)c1)c1cc(-c2ccc(Cl)s2)nc2ccccc12,-13%,?
CCCn1nc(NC(=O)c2cccc(Cl)c2)c2cc3cccc(C)c3nc21,-7%,?
CCOc1cccc(-c2nc3ccccc3c(=O)o2)c1,13%,-37%
Cc1ccccc1C(=O)Nc1ccc(OCc2cc(=O)n3ccccc3n2)cc1,4%,-19%
CCc1ccc(C(=O)c2cn(CC(=O)Nc3ccc4c(c3)OCO4)c3ccc(Cl)cc3c2=O)cc1,-15%,?
CCC(CC)C(=O)NC1CC(=O)N(c2ccc3c(c2)OCCO3)C1 (configuration not stated),-16%,7%
O=C(NCC(c1ccc2c(c1)OCO2)N1CCN(c2ccccc2F)CC1)c1ccccc1F (configuration not stated),?,?
Cc1n[nH]c(C)c1S(=O)(=O)N1CCCC(C(=O)Nc2ccc(Br)cc2)C1 (configuration not stated),?,-21%
CCc1cccc(C)c1Nc1c(-c2ccc(N(C)C)cc2)nc2ncccn12,?,?
CC(C)c1ccc(NC(=O)C2CCN(C(=O)c3ccc(F)cc3)CC2)cc1,?,-4%
COCC(=O)Nc1c(C(=O)Nc2ccc(C)cc2)oc2ccccc12,32%[activator],3%
COc1ccc(C2=NC3(CCCCCC3)N(CC(=O)Nc3cccc(Cl)c3)C2=O)cc1,32µM*,?
NC(=O)C1CCN(C(=O)c2ccc3c(c2)N(Cc2cccc(Cl)c2)C(=O)c2ccccc2S3(=O)=O)CC1,-22%,-17%

(continued)
SMILES,HTT promoter inh,PMP22 txn
CC(C)OCCCNC(=O)c1cn(C)c2ccc(S(=O)(=O)N3CCCCCC3)cc2c1=O,-11%[11.5 µM],-5%
CC1=C(C(=O)Nc2ccccc2C)C(c2ccco2)n2ncnc2N1 (configuration not stated),-4%,9%
CCOc1ccccc1-c1nnc(SCc2ccc(Cl)cc2)o1,-10%,-13%
COc1cccc(NC(=O)CSc2nc(C)c(Cc3ccccc3)c(=O)[nH]2)c1,-17%,7%
CCC(C)NC(=O)c1ccc2c(c1)N=C(C)c1cc(C)ccc1S2 (configuration not stated),?,?
Cc1ccc(NC(=O)C(NS(=O)(=O)c2ccc3c(c2)CCC(=O)N3)c2ccccc2)cc1C (configuration not stated),-9%,-32%
C[C@H](NC(CCc1ccccc1)C(=O)O)C(=O)N1CCC[C@H]1C(=O)O (some centres not stated),-27%,.
COc1cc2c(=O)c(C(=O)c3ccc(C)c(C)c3)cn(Cc3ccccc3)c2cc1OC,-7%,?
CCOC(=O)c1cccc(NC(=O)C(C)n2c(C)c3cnn(-c4ccccc4)c(=O)c3c2C)c1 (configuration not stated),-29%,2%
Cc1cc(NC(=O)C2CCN(S(=O)(=O)c3c(C)noc3C)CC2)ccc1Br,-30%,?
Cc1ccccc1CN1c2ccccc2-c2nc(SCC(=O)NCCc3ccccc3)ncc2S1(=O)=O,-10%,-16%
Cc1cc(OCC(=O)Nc2ccc(C(=O)OC3CCCCC3)cc2)cc(C)c1Cl,-12%,-18%
O=S(=O)(c1cccc(Cl)c1)c1nnn2c1nc(NC1CCCCCC1)c1sccc12,-14%,10µM*
CC(C)c1ccc(C2c3c(-c4ccccc4O)n[nH]c3C(=O)N2CCc2ccccc2)cc1 (configuration not stated),?,?
CCCCc1oc2ccc(NS(C)(=O)=O)cc2c1C(=O)c1ccc(OCCCN(CCCC)CCCC)cc1,?,.
Cc1nc2ccc(S(=O)(=O)N(CC(=O)Nc3ccc(F)cc3F)Cc3ccccc3)cc2s1,-27%,5%
COc1cc(OC)c(N(C)C(=O)Cn2ncc3c([nH]c4ccccc43)c2=O)cc1Cl,-3%,-8%
CCOc1cc2[nH]c(=O)n(CCC(=O)N3CCN(c4cccc(Cl)c4)CC3)c(=O)c2cc1OCC,-15%,-55%
CCc1ccc(NC(=O)C2CCCN(S(=O)(=O)c3c(C)[nH]c(=O)[nH]c3=O)C2)cc1 (configuration not stated),-4%,3%
COc1ccccc1C1C=C(c2ccc(F)cc2)Nc2nc(-c3ccc(Cl)cc3)nn21 (configuration not stated),?,?
Cc1ccc(CNC(=O)CCCCCn2c(=O)c3sccc3n(CC(=O)N3CCCCC3C)c2=O)cc1 (configuration not stated),-5%,-24%
CCc1ccc(NC(=O)CCn2nc(C)c(S(=O)(=O)N3CCCCC3)c2C)cc1,?,?
COc1ccc(Cn2ccn(Cc3cccc(OC)c3)c(=O)c2=O)cc1,-29%,13%
Nc1nc(Cl)nc2c1ncn2[C@H]1C[C@H](O)[C@@H](CO)O1,-10%,.
CCOc1ccccc1NC(=O)Cn1c(=O)n(-c2ccc(Cl)cc2)c(=O)c2oc3ccccc3c21,-9%,-3%

Additional structures
SMILES,HTT promoter inh,PMP22 txn
COc1ccc(NC(=O)CCCc2nnc3n(C(C)C)c(=O)c4sccc4n23)cc1Cl,-6%,-8%
COc1ccc(-c2cc(-c3ccccc3)nc(SCC(=O)Nc3ccccc3F)c2C#N)cc1,-6%,-28%
CC(=O)c1ccc(NS(=O)(=O)c2ccc3c(c2)NC(=O)CCS3)cc1,-10%,4%
CCCN(CCC)S(=O)(=O)c1ccc2c(c1)N(CC(=O)NCc1ccc(F)cc1Cl)C(=O)CS2,?,?
CCOc1cc(C(=O)OCc2cc(=O)n3nc(C4CC4)sc3n2)cc(OCC)c1OCC,-28%,-21%
CCSc1nc2n(n1)C(c1ccc(C(=O)O)cc1)C(C(=O)Nc1ccccc1C)=C(C)N2 (configuration not stated),5%,-20%
O=C(CCn1cnc2onc(-c3ccc(F)cc3)c2c1=O)N1CCN(c2ccccc2F)CC1,2%,-8%
CC(C)c1ccc(NC(=O)C2CCC(CNS(=O)(=O)c3ccc4c(c3)CCCC(=O)N4)CC2)cc1 (configuration not stated),?,?
Cc1ccc(CNC(=O)c2ccc3c(c2)nc(C)n3-c2cc(C)cc(C)c2)cc1,1%,-9%
COc1ccccc1Nc1c2c(nc3ccc(NC(=O)/C=C/c4cc(OC)c(OC)c(OC)c4)cc13)CCCC2,?,6µM*
CCc1ccc(CNC(=O)c2cnc3c(C)cccn3c2=O)cc1,9%,-23%
CCOc1ccc(C(c2c(O)cc(C)n(Cc3ccco3)c2=O)N2CCN(c3ccccc3)CC2)cc1 (configuration not stated),-7%,-70%
COc1ccc(N(CC(=O)N2CCc3ccccc3C2)S(=O)(=O)c2ccc(C)cc2)cc1Cl,-13%,?
COc1ccc(-c2nc3c(c(SCC(=O)Nc4cc(C)cc(C)c4)n2)Cc2c(CO)cnc(C)c2O3)cc1,6%,8%
CCc1cccc(NS(=O)(=O)c2ccc3c(c2)n(C)c(=O)c(=O)n3C)c1,-28%,-43%
Cc1ccc(OCCSc2nc3ccc(NC(=O)c4ccco4)cc3s2)cc1,-11%,?
Cc1cn2c(=O)cc(COC(=O)C(C)Oc3ccccc3)nc2s1 (configuration not stated),-19%,-17%
CN(C)c1ccc(CNS(=O)(=O)c2csc(C(N)=O)c2)cc1,?,-32%
COc1ccc(NC(=O)CN2C(=O)CCc3cc(S(=O)(=O)N4CCOCC4)ccc32)cc1Cl,-28%,?
O=C(C1COc2ccccc2O1)N(Cc1cccnc1)c1nc2ccc(F)cc2s1 (configuration not stated),50%[activator],-17%
Cc1ccc(C(=O)CCC(=O)Nc2ccc(C)cc2C)cc1,3%,1%
